Compound activity from PubChem BioAssay.
MT1-MMP act inh = inhibitors of human MT1-MMP activation. P50281. HT1080 RFP-PRO-GFP cells, GFP/RFP ratio fluorescence, overnight; percent of plate control window, DMSO zero. GFP/RFP ratio change, % at 20 µM. actives 0.061% (n = 360,000);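 active means GFP/RFP ratio change of at least 30% with cell ATP level not reduced by more than half and red fluorescence within 50% of control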; further: strong numbers were not always called active
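system = RFP-PRO-GFP reporter HT1080 cells | dosing = 20 µM single dose, 1% DMSO | timing = overnight cell settling, then overnight compound exposure, 37 °C, 5% CO2 | read-out basis = GFP/RFP fluorescence ratio | controls = DMSO and RFP-L50D-GFP cell wells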
eIF4H inh = inhibitors of RNA binding by human eIF4H. Q15056. eIF4H fluorescence polarization binding assay. inhibition, % at 35 µM. actives 0.94% (n = 290,000). AID 2012;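 active means 50% or more with normal probe brightness, or confirmed in later tests; about a fifth of its hits are not listed in these tables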;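 further: calls also rest on retests at 20 µM and on dose response follow-up; 0% = protein and probe with vehicle and 100% = probe without protein; strong numbers were not always called active; many hits fall short of the cut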
PABP FP inh = blocks human PABP binding to poly(A) RNA. inhibition, % at 35 µM. P11940. fluorescence polarization. AID 2014. actives 1% (n = 290,000);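 active means 50% or more with normal probe brightness, or confirmed in later tests; about a fifth of its hits are not listed in these tables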;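 further: calls also rest on retests at 20 µM and on dose response follow-up; controls were probe without protein and protein plus probe with vehicle; some compounds called inactive have numbers as strong as hits; many hits fall short of the cut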
HIV Env fusion = HIV envelope-mediated fusion inhibition | HeLa-JRFL Env/CEM21 cell fusion, luciferase | inhibition, % at 12.3 µM | actives 1.1% (n = 360,000) | AID 651610;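 active means mean replicate inhibition score of at least 50 and every replicate individually at or above 50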;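 further: 0% = plate neutral controls and 100% = maraviroc near 300 nM; one replicate is shown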
Rce1 inhib = inhibitors of yeast Ras-converting enzyme; yeast membranes, quenched prenylated peptide cleavage fluorescence; calls only; actives 0.27% (n = 290,000); AID 2563;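 active means fall in fluorescence gain of 50% or more versus controls, with final raw signal at or below 3038400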;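 further: plate controls were neutral control wells for no effect and wells lacking membranes for full effect; tested at 10 µM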
Target sequence (Q03530 whole entry, looked up): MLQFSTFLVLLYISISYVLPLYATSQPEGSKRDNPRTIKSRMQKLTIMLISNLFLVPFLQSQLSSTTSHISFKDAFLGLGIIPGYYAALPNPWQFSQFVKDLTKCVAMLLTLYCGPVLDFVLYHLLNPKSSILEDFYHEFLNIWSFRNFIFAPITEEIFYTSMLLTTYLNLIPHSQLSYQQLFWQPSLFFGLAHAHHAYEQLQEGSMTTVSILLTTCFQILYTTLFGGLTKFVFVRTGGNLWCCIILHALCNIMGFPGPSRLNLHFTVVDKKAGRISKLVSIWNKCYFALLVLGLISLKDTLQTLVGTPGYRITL
Yeast UUG start = modulators of start codon recognition fidelity in yeast; S. cerevisiae UUG-firefly luciferase reporter, luminescence/redox ratio; actives 0.13% (n = 350,000); AID 602363; activity score, % at 18.7 µM;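 active means replicate mean at a twofold rise or more, about +100% in these data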;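 further: firefly luciferase made from a UUG start codon reports start codon fidelity; reporter light over untreated wells divided by growth signal over untreated wells; some hits fall short of that in this replicate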
CSC inhib = cancer stem cell inhibition. inhibition, % at 7.5 µM. cancer stem cell-like cells viability, luminescence. actives 1.1% (n = 300,000);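 active means mean at 75% or more and at least half the replicates too; tested in HMLE shEcad cells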;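 further: 0% = median of negative and 100% = median of positive control wells; the first replicate is given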
eIF4H inh retest = second read-out of eIF4H inh, no call of its own (marks repeat the call); inhibition, %; compound at 20 µM; confirmation average;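 mean of two retest wells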
PABP FP inh retest = recorded beside PABP FP inh, whose call it bears; inhibition, %; compound at 20 µM; confirmation repeats;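 mean of two retest wells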
MT1-MMP act inh RFP = further read-out of MT1-MMP act inh, marked with its call; RFP signal change, %; measured here: RFP expression control read;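 0 = vehicle wells; hits needed this value within 50% of zero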
Active calls of the source: *; i = inactive; / = no result given. Not all compounds are listed. The share of hits here may be higher or lower than overall.

SMILES | MT1-MMP act inh | MT1-MMP act inh RFP | eIF4H inh | PABP FP inh | HIV Env fusion | Rce1 inhib | Yeast UUG start | CSC inhib | others
COc1ccc(OC)c(-n2c(C)cc(C=O)c2C)c1 | 3 | 1 | -5 | -8 | 11 | / | -10 | 0
CC(C)(C)C1CCC(OCC(O)CN2CCN(c3ccccc3)CC2)CC1 (stereo not drawn) | 2 | -2 | -7 | -7 | / | i | -12 | 46
COc1ccc(S(=O)(=O)N2CCN(CC(=O)NC(C)c3cccs3)CC2)cc1 (stereo not drawn) | -1 | -1 | / | / | -22 | / | -9 | /
O=C(COC(=O)/C=C/C(=O)OCC(=O)NC12CC3CC(CC(C3)C1)C2)NC12CC3CC(CC(C3)C1)C2 | 0 | 0 | -4 | -1 | -45 | i | -13 | 15
Clc1ccc2nc(-c3ccccc3)c(Cc3ccccc3)n2c1 | -8 | -9 | / | / | -40 | / | -13 | /
COc1ccccc1CNC(=O)Cc1csc(NC(=O)Nc2ccccc2OC)n1 | 2 | -1 | / | / | 14 | i | -2 | /
CC(NC(=O)COC(=O)CCNC(=O)c1ccco1)C12CC3CC(CC(C3)C1)C2 (stereo not drawn) | -3 | 2 | 0 | 10 | / | i | -15 | 3
CCC(C)N(CCNC(=O)c1ccc(NC2=NC3CS(=O)(=O)CC3S2)cc1)Cc1ccco1 (stereo not drawn) | -5 | 1 | -7 | -4 | / | i | -26 | -8
O=C(O)CCn1ccnc1-c1ccccc1 | 4 | 6 | 4 | -2 | / | i | -14 | -7
Cc1cc(=O)[nH]c(N/N=C2/CCCC/C2=C\c2ccccc2)n1 | 4 | 3 | 15 | -3 | 7 | i | / | 4
C/C(=N\NC(=O)c1ccc(C(=O)N/N=C(\C)c2ccco2)o1)c1ccco1 | -5 | 1 | 9 | 0 | 3 | i | -18 | 9
CC[C@H](C)Cc1cn([C@@H](CCCCNC(=O)OC(C)(C)C)C(=O)NCCCCCCCCCCC(=O)N2CCN(C(=O)OC(C)(C)C)CC2)nn1 | -2 | -25 | / | / | 30 | / | -4 | 15
CCCCc1ccc(NC(=O)N[C@@H](C)C(=O)O)cc1 | -2 | 4 | 1 | 32 | -4 | i | -6 | -4
Cn1cccc1C1CCCN1CC(=O)Nc1ccc(C(N)=O)cc1 (stereo not drawn) | -9 | -1 | / | / | / | / | 11 | -2
O=c1cc(CN2CCN(Cc3ccc(F)cc3)C(CCO)C2)[nH]c2ccccc12 (stereo not drawn) | -1 | 0 | 0 | 2 | 12 | i | -16 | -20
CCOc1ccccc1N1CN(C2CCCCC2)CNC1=S | 1 | 3 | -22 | -20 | 6 | i | -20 | -13
Cc1ccc(N2C(=O)N(CC(=O)Nc3ccc(C)cc3[N+](=O)[O-])C(=O)C2C)cc1 (stereo not drawn) | 2 | -1 | / | / | -2 | i | -8 | 10
NC(=O)c1ccccc1NC(=O)COc1ccc(Cl)cc1 | -1 | -2 | 8 | 2 | -59 | i | 1 | 2
C#CCN(C[C@@H]1[C@@H](OC(=O)NC2CC2)[C@@H](OC(=O)NC2CC2)Cn2c(=O)ccc(=O)n21)S(=O)(=O)c1ccc(C)cc1 | -3 | -3 | / | / | 5 | / | -10 | /
CN1CCN(C(=O)c2cc3ccccc3[nH]2)CC1 | 0 | 2 | 7 | 4 | -4 | i | -18 | -13
COCCNC(=O)CSc1nc(N)c(NC(=O)c2ccccc2F)c(=O)[nH]1 | -4 | -6 | 2 | 11 | -2 | i | -5 | -5
CC(=O)N1[C@H](C)C=C[C@]1(Cc1ccccc1)C(=O)NCCc1c[nH]c2ccccc12 | -3 | -3 | 2 | 2 | / | i | -10 | -11
O=C(CCn1c(=O)oc2ccccc21)Nc1ccc(N2CCOCC2)cc1 | -3 | 2 | -12 | 0 | 16 | i | -15 | /
O=C(Nc1cccc(Cl)c1)N1CCN2C(=O)c3ccccc3C12c1ccccc1 (stereo not drawn) | -18 | -25 | -1 | -6 | / | i | -3 | 14
O=C(COc1ccccc1)NC1CCCCCCC1 | 0 | 3 | -17 | 10 | 11 | i | -11 | -2
The list continues:
SMILES | MT1-MMP act inh | MT1-MMP act inh RFP | eIF4H inh | PABP FP inh | HIV Env fusion | Rce1 inhib | Yeast UUG start | CSC inhib | others
O=C1c2ccc([N+](=O)[O-])cc2NC(c2ccco2)N1/N=C/c1ccco1 (stereo not drawn) | 2 | 5 | 56* | 23 | -6 | i | / | -16 | eIF4H inh retest=86*;PABP FP inh retest=47
CC1CCC(C(C)C)C(OC(=O)C[n+]2cccc(C(N)=O)c2)C1 (stereo not drawn) | -15 | -5 | -10 | 13 | -9 | i | 3 | /
COc1ccc(-n2nc(C(=O)NCC(=O)NCCCN3CCOCC3)c3ccccc3c2=O)cc1 | 4 | 8 | -3 | -4 | -1 | i | -1 | -34
O=C(OCc1ccc([N+](=O)[O-])cc1)c1cc([N+](=O)[O-])ccc1N1CCOCC1 | -5 | -12 | / | / | -4 | i | / | 14
COc1ccccc1CC(=O)N1CCN(S(=O)(=O)c2ccccc2F)CC1 | 13 | 4 | / | / | / | / | 11 | -11
COc1ccc(/C=C(/C#N)C(=O)Nc2cccc([N+](=O)[O-])c2)cc1C(=O)O | -2 | 2 | 4 | 9 | 4 | i | -14 | 1
CCOc1ccc(CN2CCC(C(=O)N3CCN(c4ccccc4F)CC3)CC2)cc1OC | 11 | -5 | -2 | -4 | -12 | i | 26 | 12
COc1ccc(-c2c3c(=O)n(C)c(=O)n(C)c3cn2-c2ccccc2O)cc1 | -5 | 2 | 18 | 6 | -7 | i | -8 | 3
CCOc1ccc(NC(=O)C2CCCN(c3nn4c(=O)cc(C)nc4s3)C2)cc1 (stereo not drawn) | 2 | 0 | 4 | 6 | -4 | i | -13 | 3
O=C(NCc1ccco1)/C(=C/c1ccccc1)NC(=O)c1ccco1 | 4 | 4 | 0 | 7 | 4 | i | -15 | /
CNc1ccc(/C=C2\COc3ccccc3C2=O)cc1[N+](=O)[O-] | 6 | -1 | 3 | 21 | / | i | -6 | 1
CCOc1cccc(C(=O)NC(=S)Nc2ccc(N3CCCC3)cc2)c1 | 2 | -6 | 0 | -9 | / | i | -14 | -9
Cc1nnc2sc(-c3ccccn3)nn12 | 4 | 4 | 4 | -6 | -14 | i | -31 | -14
CCCCCC(=O)Nc1ccc(-c2csc(N)n2)cc1 | 5 | -4 | -1 | -11 | -18 | i | / | 10
COC(=O)COc1ccc(/C=N/NS(=O)(=O)c2ccccc2)cc1 | 0 | 2 | -6 | -3 | -4 | i | -16 | 0
CC1=NN(CCC#N)C(=O)/C1=C/c1ccc(N(C)C)cc1 | 5 | 7 | 77* | 8 | 12 | i | 25 | -3 | eIF4H inh retest=54*;PABP FP inh retest=39
CCOc1ccc(NC(=O)CN(C)C(=O)c2ccc(OCC3CCCO3)cc2)cc1OCC (stereo not drawn) | -3 | 2 | 5 | 13 | 1 | i | 6 | /
Cc1c(-n2c(SCC(N)=O)nc3ccccc3c2=O)c(=O)n(-c2ccccc2)n1C | 0 | 3 | 6 | -7 | 5 | i | / | -5
Cc1ccc(NC(=O)CCSc2nc(C)cc(C)n2)cc1 | 4 | 6 | -4 | 11 | / | i | -7 | 12
Nc1nnc(SCC(=O)NC2CCCCCC2)s1 | -4 | -3 | / | / | -3 | i | 15 | 0
COc1ccc(S(=O)(=O)NC(CCSC)C(=O)NC2CCCCC2)cc1 (stereo not drawn) | 4 | 3 | 8 | -2 | 4 | i | / | /
CCOc1cc(CNc2ncn[nH]2)ccc1OCC(=O)NC(C)(C)C | -4 | -4 | 1 | -12 | 8 | i | / | -6
CCn1c(-c2ccccc2Cl)nn(CC(=O)NCCc2ccccc2)c1=S | 1 | 3 | 1 | 7 | -13 | i | / | -10
CCOC(=O)c1c(C)[nH]c(C(=O)NNC(=O)c2ccc(Br)cc2)c1C | -1 | 3 | / | / | -12 | / | -20 | /
CC(C)(C)c1ccc(C(=O)NNC(=O)c2ccccc2Br)cc1 | 2 | 2 | 3 | -7 | -71 | i | -5 | -11
(cont.)
SMILES | MT1-MMP act inh | MT1-MMP act inh RFP | eIF4H inh | PABP FP inh | HIV Env fusion | Rce1 inhib | Yeast UUG start | CSC inhib | others
Cc1ccc(S(=O)(=O)NCC2CCC(C(=O)NCc3cccs3)CC2)cc1 (stereo not drawn) | 0 | -3 | 7 | -6 | 5 | i | / | 3
c1nc(NC2CCCCC2)c2[nH]cnc2n1 | -2 | -3 | -6 | -4 | 10 | i | -14 | -14
O=C1CN(C(=O)c2c(F)cccc2F)C(c2ccc(F)cc2)c2cc(Br)ccc2N1 (stereo not drawn) | -19 | -13 | 0 | -3 | 34 | i | -10 | 6
C#CCOCCOCCOCCNc1nc(N2CCN(C(=O)[C@H](CCC(=O)O)n3cc(CN)nn3)CC2)nc(N2CCN(C(=O)[C@H](CCCN=C(N)N)n3cc(C(N)[C@@H](C)CC)nn3)CC2)n1 (stereo partly drawn) | 2 | 5 | / | / | 21 | / | -6 | /
CC1Oc2ccccc2C=C1C1/C(=C(/O)c2ccccc2)C(=O)C(=O)N1CCCN(C)C (stereo not drawn) | 7 | 8 | -2 | 0 | / | i | / | -7
O=C(c1cc([N+](=O)[O-])cc([N+](=O)[O-])c1)N(Cc1nnc(-c2ccccc2Cl)o1)C1CC1 | 2 | -2 | 3 | 3 | 2 | i | / | 29
O=C(COC(=O)c1cc(S(=O)(=O)N2CCOCC2)ccc1F)NCCc1ccc(F)cc1 | 0 | 1 | / | / | / | / | 3 | -7
O=[N+]([O-])/C=C\c1ccc(N2CCOCC2)cc1 | 1 | -4 | / | / | 9 | i | / | 36

Ordered by count of non-hydrogen atoms (descending): part of the list above.
SMILES | MT1-MMP act inh | MT1-MMP act inh RFP | eIF4H inh | PABP FP inh | HIV Env fusion | Rce1 inhib | Yeast UUG start | CSC inhib | others
C#CCOCCOCCOCCNc1nc(N2CCN(C(=O)[C@H](CCC(=O)O)n3cc(CN)nn3)CC2)nc(N2CCN(C(=O)[C@H](CCCN=C(N)N)n3cc(C(N)[C@@H](C)CC)nn3)CC2)n1 (stereo partly drawn) | 2 | 5 | / | / | 21 | / | -6 | /
CC1Oc2ccccc2C=C1C1/C(=C(/O)c2ccccc2)C(=O)C(=O)N1CCCN(C)C (stereo not drawn) | 7 | 8 | -2 | 0 | / | i | / | -7
O=C(c1cc([N+](=O)[O-])cc([N+](=O)[O-])c1)N(Cc1nnc(-c2ccccc2Cl)o1)C1CC1 | 2 | -2 | 3 | 3 | 2 | i | / | 29
O=C1CN(C(=O)c2c(F)cccc2F)C(c2ccc(F)cc2)c2cc(Br)ccc2N1 (stereo not drawn) | -19 | -13 | 0 | -3 | 34 | i | -10 | 6
CCn1c(-c2ccccc2Cl)nn(CC(=O)NCCc2ccccc2)c1=S | 1 | 3 | 1 | 7 | -13 | i | / | -10
COc1ccc(S(=O)(=O)NC(CCSC)C(=O)NC2CCCCC2)cc1 (stereo not drawn) | 4 | 3 | 8 | -2 | 4 | i | / | /
CCOC(=O)c1c(C)[nH]c(C(=O)NNC(=O)c2ccc(Br)cc2)c1C | -1 | 3 | / | / | -12 | / | -20 | /
CC(C)(C)c1ccc(C(=O)NNC(=O)c2ccccc2Br)cc1 | 2 | 2 | 3 | -7 | -71 | i | -5 | -11
Cc1ccc(NC(=O)CCSc2nc(C)cc(C)n2)cc1 | 4 | 6 | -4 | 11 | / | i | -7 | 12
Nc1nnc(SCC(=O)NC2CCCCCC2)s1 | -4 | -3 | / | / | -3 | i | 15 | 0
O=[N+]([O-])/C=C\c1ccc(N2CCOCC2)cc1 | 1 | -4 | / | / | 9 | i | / | 36
c1nc(NC2CCCCC2)c2[nH]cnc2n1 | -2 | -3 | -6 | -4 | 10 | i | -14 | -14
